Vaccinia inh: blocks a specific stage of Vaccinia orthopoxvirus infection; 0.01% of 89,000 active; Vaccinia-infected cells, mCherry/Venus stage reporter fluorescence; hits give low values; some inactives read as strong as hits; activity change (mCherry), % (no concentration beside the values); AID 1053133;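 active = mCherry past -33% and 40 or more points under the early reporter, replicates agreeing; inconclusive = past -33% without that gap or agreement; tested in A549 cells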;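 also: scaled between vehicle wells and reference inhibitor wells; 23 nL library stock went into each well; one replicate is shown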
Vaccinia inh Venus: second read-out of Vaccinia inh, no call of its own (marks repeat the call); activity change (Venus), %; measured here: Venus reporter, other viral stage;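 negative = less Venus signal; first of two replicates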
* = called active by the depositor; ? = inconclusive; nt = no result given; & = joins results of further samples. Not all compounds are listed (hit frequency here may not be typical).

The line under a structure holds: Vaccinia inh	Vaccinia inh Venus
Cc1ccc(S(=O)(=O)N(C)C[C@H]2Oc3c(NC(=O)Nc4ccc(C(F)(F)F)cc4)cccc3C(=O)N([C@H](C)CO)C[C@@H]2C)cc1
  -30.9	-16.8
C[C@H]1CN([C@@H](C)CO)C(=O)c2cccc(N(C)C)c2O[C@@H]1CN(C)C(=O)Nc1ccc2c(c1)OCO2
  9.0	5.8
CN(C)c1ccc2c(c1)[C@@H]1C[C@@H](CC(=O)NCCN3CCCCC3)O[C@H](CO)[C@@H]1O2
  4.7	7.1
Cc1ccc(S(=O)(=O)N(C)C[C@@H]2Oc3c(NC(=O)NC4CCCCC4)cccc3C(=O)N([C@H](C)CO)C[C@H]2C)cc1
  -8.2	-11.2
O=C(C[C@H]1C[C@@H]2c3cc(NS(=O)(=O)c4ccc(F)cc4)ccc3O[C@@H]2[C@H](CO)O1)NCc1ccccc1
  3.5	5.6
CN(C)C(=O)c1cccc(-c2ccc(C3[C@@H]4CN(S(=O)(=O)c5ccccc5)C[C@H]3N4)cc2)c1 (stereo partly specified)
  0.4&-8.9	-2.3&-13.9
O=C(C[C@@H]1CC[C@@H](NC(=O)CN2CCOCC2)[C@@H](CO)O1)NC1CCCCC1
  -5.8	4.4
C[C@H]1CN([C@@H](C)CO)C(=O)Cc2cc(NS(=O)(=O)c3ccccc3)ccc2O[C@H]1CN(C)C(=O)Nc1ccc(F)cc1
  11.7	3.3
O=C(C[C@H]1C[C@H]2c3cc(NC(=O)c4cccnc4)ccc3O[C@H]2[C@H](CO)O1)NCc1ccccc1
  8.7	2.6
CC(=O)NC[C@@H]1[C@@H](c2ccc(-c3cccnc3)cc2)[C@H](CO)N1C(=O)C1CC1
  8.8	14.8
CC(C)(C)[S@](=O)N1Cc2cc(C(=O)N3CCCCC3)nc(-c3cccc(-c4ccc(C#N)cc4)c3)c2[C@@H]1CCO
  -11.8	7.0
O=C(c1cccc(F)c1)N1CCCCN2[C@H](CO)[C@H](c3ccc(/C=C/c4ccccc4)cc3)[C@@H]2C1
  ?	nt
Cc1noc(C)c1NC(=O)N(C)C[C@@H]1Oc2ccc(NS(C)(=O)=O)cc2C(=O)N([C@H](C)CO)C[C@@H]1C
  20.9	15.7
C[C@H](CO)N1C[C@H](C)[C@H](CN(C)Cc2ccc(Oc3ccccc3)cc2)Oc2c(NC(=O)c3cnccn3)cccc2C1=O
  -6.8	-9.7
CO[C@H]1CN(C)C(=O)c2cc(NC(=O)C3CCCC3)ccc2OC[C@H](C)NC[C@H]1C
  2.4	-1.5
CC(C)NC(=O)Nc1ccc2c(c1)C(=O)N([C@H](C)CO)C[C@@H](C)[C@@H](CN(C)C(=O)Nc1cccc3ccccc13)O2
  17.4	11.6
O=C(C[C@H]1CC[C@@H](NC(=O)Nc2ccccc2F)[C@H](CO)O1)NCc1ccc(-c2ccccc2)cc1
  ?	nt
O=C(C1CCC1)N1CC2(C1)[C@@H](c1ccccc1)[C@@H](CO)N2Cc1cncnc1
  13.9	9.8
C[C@H]1CN([C@@H](C)CO)C(=O)c2cccc(NC(=O)Nc3ccc(C(F)(F)F)cc3)c2O[C@@H]1CN(C)C(=O)Nc1ccc(C(F)(F)F)cc1
  ?	nt
COc1ccc(S(=O)(=O)N(C)C[C@@H]2OCCCC[C@H](C)Oc3ccc(NS(=O)(=O)c4ccc(F)cc4)cc3C(=O)N([C@@H](C)CO)C[C@@H]2C)cc1
  -29.9	-23.1
O=C(c1ccccc1)N1C[C@H]2[C@@H](c3ccccc31)[C@@H](CO)N2Cc1cocn1
  2.5	11.1
C[C@H](CO)N1C[C@H](C)[C@@H](CN(C)S(=O)(=O)c2cccs2)OCCCC[C@H](C)Oc2ccc(NC(=O)CCCN(C)C)cc2C1=O
  18.2	-2.2
CO[C@@H]1CC[C@@H]2CCOc3c(C#N)cccc3C(=O)N(C)CCCC(=O)N(C)C[C@@H]1O2
  10.9	2.8
C[C@H](CO)N1C[C@H](C)[C@H](CN(C)Cc2ccccn2)Oc2ncc(C#C[C@@H](C)O)cc2C1=O
  21.9	9.5
COCC(=O)Nc1ccc2c(c1)[C@@H]1C[C@H](CC(=O)O)O[C@@H](CO)[C@@H]1O2
  6.4	4.2
C[C@H](CO)N1C[C@H](C)[C@@H](CN(C)C)Oc2ccc(NC(=O)Nc3ccc(F)cc3)cc2CC1=O
  6.8	0.3
C[C@@H]1CCCCO[C@H](CN(C)Cc2ccc(C(=O)O)cc2)[C@H](C)CN([C@H](C)CO)C(=O)c2cc(NC(=O)c3ccccc3)ccc2O1
  9.1	-4.2
CS(=O)(=O)N[C@@H]1C[C@@H]2O[C@H](CO)CC[C@@H]2O[C@@H]1CCc1ccc(-c2ccccc2F)cc1
  -9.3	-12.4
CCCNC(=O)N1C[C@H](C)[C@H](OC)CN(C)C(=O)c2cc(NC(C)=O)ccc2OC[C@@H]1C
  2.7	7.2
COc1cccc(-c2ccc3c(c2)[C@H]2[C@H](CCN2S(=O)(=O)c2cn(C)cn2)[C@@H](CO)N3)c1
  -4.4	-8.2
O=C(C[C@@H]1CC[C@@H]2[C@H](COC[C@H](O)CN2Cc2ccc(F)cc2)O1)N1CCc2ccccc2C1
  -33.8	-18.7
CC(C)NC(=O)N1CC(=O)N2[C@H](CO)[C@H](c3ccc(/C=C/c4ccccc4)cc3)[C@@H]2C1
  1.4	4.6
Cc1noc(C)c1S(=O)(=O)Nc1ccc2c(c1)C(=O)N([C@H](C)CO)C[C@H](C)[C@H](CN(C)C(=O)Nc1cccc3ccccc13)OCCCC[C@H](C)O2
  5.5	7.8
Cn1cnc(S(=O)(=O)N2C[C@H](O)COC[C@@H]3O[C@H](CC(=O)NCc4ccc(F)cc4)CC[C@H]32)c1
  7.9	5.8
C[C@H]1CN([C@@H](C)CO)C(=O)Cc2cc(NC(=O)CCN3CCOCC3)ccc2O[C@@H]1CN(C)Cc1ccc(C(F)(F)F)cc1
  -8.2	-0.5
CS(=O)(=O)Nc1ccc2c(c1)[C@@H]1C[C@@H](CC(=O)NCCc3ccccc3)O[C@@H](CO)[C@@H]1O2
  4.1	3.0
CCC(=O)N1C[C@@H]2[C@H](c3ccccc31)[C@H](CO)N2Cc1ccccc1OC
  6.2	0.6
Cc1noc(C)c1S(=O)(=O)N(C)C[C@H]1Oc2ccc(NC(=O)c3ccncc3)cc2CC(=O)N([C@H](C)CO)C[C@H]1C
  9.3	6.9
C/C=C/c1ccc([C@@H]2[C@H](CO)N(Cc3cncnc3)C23CN(C(=O)CC)C3)cc1
  10.3	14.0
C[C@@H]1CN([C@H](C)CO)S(=O)(=O)c2ccc(C#CC3CCCCC3)cc2O[C@H]1CN(C)C(=O)Cc1ccncc1
  ?	-29.4
Cc1noc(C)c1NC(=O)N(C)C[C@H]1OCCCC[C@@H](C)Oc2ccc(N(C)C)cc2C(=O)N([C@@H](C)CO)C[C@@H]1C
  11.7	15.2
CCNC(=O)C[C@H]1CC[C@H]2[C@@H](COC[C@@H](O)CN2C(=O)Nc2ccc(C(F)(F)F)cc2)O1
  ?	nt
Cc1noc(C)c1NC(=O)N(C)C[C@@H]1Oc2c(NC(=O)c3cnccn3)cccc2C(=O)N([C@H](C)CO)C[C@@H]1C
  11.7	7.4
CCCNC(=O)N(C)C[C@@H]1Oc2ncc(Br)cc2C(=O)N([C@H](C)CO)C[C@@H]1C
  10.8&14.0	12.9&3.5
COc1ccccc1CN1C(=O)c2ccccc2[C@](Cc2ccccc2I)(C(=O)NCCN2CCOCC2)[C@@H]1c1ccc(CO)cc1
  ?	nt
COCC#Cc1cnc2c(c1)C(=O)N([C@@H](C)CO)C[C@@H](C)[C@H](CN(C)C)O2
  16.1	7.0
C[C@@H]1CN([C@@H](C)CO)C(=O)c2cc(NC(=O)CCCN(C)C)ccc2O[C@@H](C)CCCCO[C@@H]1CN(C)Cc1ccc(C(F)(F)F)cc1
  ?	nt
CCNC(=O)C[C@H]1CC[C@@H]2[C@H](COC[C@H](O)CN2C(=O)Nc2ccc(Cl)c(Cl)c2)O1
  16.8	7.4
O=C(Nc1ccc(Cl)c(Cl)c1)N[C@@H]1CC[C@@H](CCNC(=O)c2ccc(F)cc2)O[C@H]1CO
  -14.4	-5.1
COc1ccccc1C#Cc1ccc2c(c1)[C@H]1[C@H](CCN1S(=O)(=O)c1ccccc1)[C@H](CO)N2
  7.3	-2.8
COc1ccc(-c2ccccc2[C@H]2[C@@H](CO)N(C(=O)c3cccnc3)[C@H]2C#N)cc1
  4.0	6.1
CO[C@H](CN(C)C(=O)c1ccccc1F)[C@@H](C)CN([C@@H](C)CO)S(=O)(=O)c1ccccc1
  14.2	16.5
O=C(C[C@H]1C[C@H]2c3cc(NC(=O)C4CCOCC4)ccc3O[C@H]2[C@@H](CO)O1)NCc1ccc(Cl)cc1
  19.0	12.2
CC(C)NC(=O)Nc1ccc2c(c1)C(=O)N([C@@H](C)CO)C[C@@H](C)[C@H](CN(C)C(=O)c1ccncc1)OCCCC[C@@H](C)O2
  19.7	5.6
COc1ccc(NC(=O)N(C)C[C@@H]2Oc3c(NC(=O)Nc4cccc5ccccc45)cccc3C(=O)N([C@H](C)CO)C[C@H]2C)cc1
  -7.3	-5.9
C[C@@H]1CN([C@@H](C)CO)C(=O)Cc2cc(NS(=O)(=O)c3ccccc3)ccc2O[C@@H]1CN(C)Cc1ccc(C(F)(F)F)cc1
  -17.3	-19.4
C[C@H]1CN([C@@H](C)CO)C(=O)c2cc(C#CCN(C)C)cnc2O[C@@H]1CN(C)C(=O)c1cccc(F)c1
  27.4	5.9
Cc1ccc(S(=O)(=O)N(C)C[C@@H]2Oc3ccc(NC(=O)Nc4ccc(F)cc4)cc3C(=O)N([C@H](C)CO)C[C@@H]2C)cc1
  -30.1	-18.2
COc1cccc(S(=O)(=O)N2CCCCN3[C@H](C2)[C@@H](c2ccc(-c4cncnc4)cc2)[C@@H]3CO)c1
  10.3	-5.9
C/C=C/c1cnc2c(c1)C(=O)N([C@H](C)CO)C[C@H](C)[C@H](CN(C)Cc1cccc(C(=O)O)c1)O2
  24.6	8.0

(cont.)
The line under a structure holds: Vaccinia inh	Vaccinia inh Venus
CC(C)OC(=O)N(C)C[C@@H]1OCc2cnnn2CCCC(=O)N([C@H](C)CO)C[C@H]1C
  3.3&7.5	3.3&10.1
CCCN(C)C[C@@H]1OCCCC[C@@H](C)Oc2ccc(NC(=O)CCC(F)(F)F)cc2C(=O)N([C@H](C)CO)C[C@@H]1C
  11.3	7.1
C[C@H](CO)N1C[C@H](C)[C@@H](CN(C)Cc2ccc3c(c2)OCO3)Oc2c(NS(=O)(=O)c3cn(C)cn3)cccc2C1=O
  26.4	7.1
C[C@H](CO)N1C[C@H](C)[C@@H](CN(C)C(=O)CN2CCOCC2)Oc2ncc(-c3cncnc3)cc2C1=O
  5.5&26.3	10.0&15.8
C[C@@H]1CCCCO[C@@H](CN(C)S(=O)(=O)c2ccccc2)[C@H](C)CN([C@H](C)CO)C(=O)c2cc(NC(=O)CCCN(C)C)ccc2O1
  -2.9	-17.3
C[C@@H]1CN([C@H](C)CO)C(=O)c2cc(NS(C)(=O)=O)ccc2O[C@H]1CN(C)Cc1ccc2c(c1)OCO2
  13.2	2.0
CCCNC(=O)Nc1ccc2c(c1)C(=O)N(C)C[C@H](OC)[C@@H](C)CN(C)[C@@H](C)CO2
  -2.8	-2.6
C[C@@H]1CCCCO[C@@H](CN(C)Cc2ccc3c(c2)OCO3)[C@@H](C)CN([C@@H](C)CO)C(=O)c2cc(NS(=O)(=O)c3ccc(F)cc3)ccc2O1
  ?	nt
O=C(C1CCC1)N1CC2(C1)[C@@H](c1ccccc1)[C@@H](CO)N2Cc1ccc(Cl)cc1
  -23.9	-10.2
COCC(=O)N1CC(=O)N2[C@@H](CO)[C@@H](c3ccc(C#CC4CCCCC4)cc3)[C@@H]2C1
  -6.8	-7.8
CN(C)C(=O)C[C@@H]1CC[C@H]2[C@@H](COC[C@@H](O)CN2C(=O)C2CC2)O1
  7.3	9.9
COc1cccc(CN2CC3(CN(S(C)(=O)=O)C3)c3c(n(C)c4cc(OC)ccc34)[C@H]2CO)c1
  11.5	2.7
CCCNC(=O)Nc1ccc2c(c1)C(=O)N(C)[C@@H]1CC[C@H](CC(=O)NCc3ccccc3)O[C@@H]1CO2
  -2.9	-5.3
C[C@H](CO)N1C[C@H](C)[C@@H](CN(C)S(C)(=O)=O)Oc2ccc(NC(=O)CCC(F)(F)F)cc2CC1=O
  -0.4	2.3
CO[C@@H]1CN(C)C(=O)c2cc(NC(=O)Nc3cccc(F)c3)ccc2OC[C@@H](C)N(C(=O)Nc2cccc(F)c2)C[C@H]1C
  -24.5	-23.5
